# Screens deposited in PubChem by National Center for Advancing Translational Sciences (NCATS).
# StopGo FLuc: lowers the firefly signal of an FMDV 2A StopGo reporter; HEK cells with a luciferase reporter of 2A StopGo recoding; Potency, µM (titrated, usually from 57.5 µM), for the others: at the highest dose signal change, negative = less light; 0.23% of 120,000 active; AID 1745856; active = well fitted falling curve with a large enough effect; inconclusive = small, poorly fitted or top-dose-only effect; inactive = no such curve, though single readings can be large or run the other way; note: nearly all actives have a fitted effect of over 60% in size; overnight with compound
# 2A Renilla: FMDV 2A StopGo reporter, Renilla signal. HEK cells with a luciferase reporter of 2A StopGo recoding. Potency, µM (titrated, usually from 57.5 µM), without a hit: at the highest dose signal change, negative = less light. 0.32% of 120,000 active. AID 1745857; active means well fitted falling curve with a large enough effect; inconclusive means small, poorly fitted or top-dose-only effect; inactive means no such curve, though single readings can be large or run the other way; note: nearly all actives have a fitted effect of over 55% in size; overnight with compound
# * = called active by the depositor; u = inconclusive; & = joins results of further samples; [ ] = dose if it differs, or a comment. % is set by controls: 0 for no effect and ±100 for the full control effect; potency is the fitted concentration of half-maximal effect. Only part of the results is shown; rates above refer to the full screens.
SMILES,StopGo FLuc,2A Renilla
COc1ncccc1CNC(=O)Nc1nnc(C)s1,7.2%,-5.4%
Cc1ccc(NC(=O)c2cc(S(=O)(=O)N3CCC4(CC3)OCCO4)ccc2F)cc1Cl,-16.6%,-13.8%
CC(C)(C)c1noc(CN2CCN(C(=O)c3ccco3)CC2)n1,0.6%,-13.9%
COc1ccc2c(CCNC(=O)C3CCN(c4nc(Cl)nc5nc[nH]c45)CC3)c[nH]c2c1,-8.4%,-0.5%
O=C(COc1ccc(Cl)cc1Br)OCC(=O)c1ccc(-c2ccccc2)cc1,u,13.2%
COc1ccc(NS(=O)(=O)c2cc3[nH]c(=O)c(=O)[nH]c3cc2C)cc1Cl,11.5%,4.2%
O=C(Cn1c(=O)n(-c2ccccc2)c(=O)c2ccc(C(=O)NCc3ccc4c(c3)OCO4)cc21)Nc1ccc(F)c(Cl)c1,10.1%,93.3%[activator]
CCc1cc(C(=O)NNC(=S)NC(=O)c2ccccc2)cs1,33.1%[activator],-28.9%
Cc1ccc2nc(C)c(C(=O)/C=C/c3ccccc3C)c(-c3ccccc3)c2c1,u,u
COc1ccc(/C=C/C(=O)c2ccc(C#N)cc2)cc1Br,9.0%,13.6%
O=C(NCc1ccncc1)NCC1(c2ccccc2)CC1,1.0%,-6.6%
COc1ccc(-c2csc(-c3cc4c([nH]c3=O)CC(c3ccco3)CC4=O)n2)cc1F (configuration not stated),-13.0%,-16.5%
CCOc1ccccc1C(=O)Nc1ccc2nc3c(c(Nc4ccc(OC)c(OC)c4)c2c1)CCCC3,24.1%,21.6%
COc1ccc(O)c(C2=Nc3ccccc3N=C(c3ccccc3)C2)c1,247.1%[activator],-5.4%
CCC(C)(C)C1CCC(NC(=O)C(=O)Nc2cccc(Cl)c2C)CC1 (configuration not stated),3.8%,-3.7%
Cc1ccc(NC(=O)CSc2nc(-c3ccccc3)cc(=O)[nH]2)cc1Cl,2.0%,18.9%
CCCNS(=O)(=O)c1ccc(N2C(=O)CCS2(=O)=O)cc1C,-1.9%,2.6%
O=C(O)c1cc(Cl)cc(Cl)c1Br,11.9%,0.0%
COc1ccc(Nc2nc3ccccc3nc2-n2nc(C)cc2C)cc1Cl,40.8%[activator],8.3%
CCCCNc1nc(Oc2ccc(=O)n(C)n2)nc(N(C)C)n1,33.4%,23.7%
CCCCN(C)C(=O)Cn1ncc2c([nH]c3ccc(C)cc32)c1=O,5.3%,-5.2%
c1coc(CNCCSCc2cccs2)c1,2.9%,3.7%
COc1ccc(-c2nc3cc(NC(=O)c4ccc(Br)cc4)ccc3o2)cc1,105.4%[activator],15.8%
CN(C(=O)Cn1cc(C#N)c2ccccc21)c1ccccc1,12.7%,5.0%
CC(=O)c1ccc(N2CCN(C(=O)c3ccc(Cn4cncn4)cc3)CC2)cc1,25.4%,-5.0%
Cc1ccc(CNc2ncnc3onc(C)c23)cc1,u,-26.7%
OCCN1CCN(C(c2ccc(Cl)cc2Cl)c2sc3nc(-c4ccco4)nn3c2O)CC1 (configuration not stated),-11.4%,11.5%
CCOc1ccccc1Oc1c(C(F)(F)F)oc2cc(OC(=O)c3ccc(C)cc3)ccc2c1=O,13.7%,1.9%
COc1ccc(CNc2nc(-c3ccc(OC)c(OC)c3)cc(C(F)(F)F)n2)cc1,1.8%,7.9%
Nc1c(C(=O)NC2CCCC2)cnn1-c1ccccc1,15.3%,-11.3%

# Profiles from above. Screens in order: StopGo FLuc, 2A Renilla
# `COc1ccc(CNc2nc(-c3ccc(OC)c(OC)c3)cc(C(F)(F)F)n2)cc1` is entered as 1.8%, 7.9%
# `c1coc(CNCCSCc2cccs2)c1` is entered as 2.9%, 3.7%
# `COc1ccc(-c2nc3cc(NC(=O)c4ccc(Br)cc4)ccc3o2)cc1` is entered as 105.4%[activator], 15.8%
# `Nc1c(C(=O)NC2CCCC2)cnn1-c1ccccc1` is entered as 15.3%, -11.3%

# (continued)
SMILES,StopGo FLuc,2A Renilla
COc1ccc(CNC(=O)C(=O)c2c[nH]c3ccccc23)cc1,157.1%[activator],108.8%[activator]
O=C(c1cnc(N2CCOCC2)c2ccccc12)N1CCN(c2ccccc2F)CC1,-10.3%&-1.6%,74.3%&48.3%[activator]
COc1ccc(CN(C)S(=O)(=O)c2ccc3c(c2)OCCCO3)cc1OC,u,u
COc1ccc(C2=NN(C(=O)c3cccs3)C(c3ccc4nccnc4c3)C2)cc1 (configuration not stated),159.9%[activator],-4.2%
O=C(CN1CCCCC1)c1ccc(-c2ccccc2)cc1,0.0%,0.1%[1.06 µM]
CCOC(=O)c1c(C)oc2ccc(N(C(=O)c3ccncc3)S(=O)(=O)c3ccc(F)cc3)cc12,29.2%,181.3%[activator]
O=S(=O)(O)c1cc(I)c(O)c2ncccc12,-14.7%,-5.8%
CC(=O)N1CCN(C(=O)CCc2c(C)c3ccc(O)cc3oc2=O)CC1,1.1%,0.7%
Nc1ncc(S(=O)(=O)NCc2ccccc2F)cn1,-8.7%,3.6%
CC1=C(C(=O)Nc2cccnc2)C(c2cccc(O)c2)n2nc(SCc3ccccc3)nc2N1 (configuration not stated),-12.4%,-2.3%
O=C(O)c1ccccc1-c1ccc(/C=N/O)o1,21.4%,1.2%
COc1ccc(C(Nc2ccccn2)c2ccc3ccc(C)nc3c2O)cc1C (configuration not stated),16.5%,52.2%[activator]
CC(NC(=O)c1nn(C)c(=O)c2ccccc12)c1ccccc1 (configuration not stated),8.0%,6.2%
COc1cccc(C(=O)Nc2c(N3CCCC3)c3ccccc3oc2=O)c1,-5.8%,-7.4%
Cc1ccc(C(=O)COC(=O)CCC(=O)Nc2ccc(Oc3ccccc3)cc2)cc1,22.3%,-13.8%
Cc1ccccc1CS(=O)Cc1c(F)cccc1Cl (configuration not stated),-0.5%,17.8%
CCCCN(Cc1ccccc1)c1ccc(NS(=O)(=O)c2ccccc2C)cc1C(=O)O,10.3%,96.2%[activator]
COc1cccc(CNC(=O)C2CCCN(c3ncnc4onc(-c5ccc(F)cc5)c34)C2)c1 (configuration not stated),2.6%,6.2%
O=C(c1cccc(C(F)(F)F)c1)N1CCCC(C(=O)N2CCCC2)C1 (configuration not stated),9.7%,10.2%
COc1ccc(Cl)cc1NC(=O)c1ccc(CN2C(=O)CCn3nc(C)cc32)cc1,-9.8%,17.9%
O=[N+]([O-])c1ccc(C=Nc2cccc3ccccc23)cc1,12.4%,-2.1%
CCOC(=O)c1cc(-c2ccc(C)cc2)n(CCC(=O)NCc2ccccc2)c1C,-7.9%,23.1%
CC(C)(C)c1cc(-c2nc3ccccc3[nH]2)cc(C(C)(C)C)c1O,0.8%,-15.1%
OCCN1CCN(CCCN2c3ccccc3Sc3ccc(C(F)(F)F)cc32)CC1,-5.7%[11.5 µM],-8.7%
CCOc1ccc(NC(=O)Cn2nc(CC)n3c(cc4sccc43)c2=O)cc1,-17.6%,-14.6%
CN(Cc1ccc(F)cc1)C(=O)c1cc(-c2ccncc2)nc2ccccc12,-1.2%,33.6%[activator]
O=C(NC1(C(F)(F)F)N=C(c2ccccc2)N(Cc2ccco2)C1=O)c1cccs1 (configuration not stated),-18.2%,-14.1%
COc1cc(OC)c(NC(=O)N2CCOc3ccc(C)cc32)cc1Cl,-8.3%,-16.6%
CC(C)CC1Nc2ccc(C(=O)NCCCOC(C)C)cc2NC1=O (configuration not stated),-2.4%,1.0%
O=C(Nc1ccc(OC(F)(F)F)cc1)C(NS(=O)(=O)c1cccc2nsnc12)c1ccccc1 (configuration not stated),-11.3%,40.1%[activator]
CC(=O)N1CCc2c(sc3c2c(=O)n(CCc2ccccc2)c(=O)n3CC(=O)Nc2ccc(C)c(F)c2)C1,7.8%,-12.1%
CCSc1nc2c(c(=O)[nH]1)C(c1ccc(O)c(OC)c1)C1=C(CCCC1=O)N2 (configuration not stated),-4.3%,1.6%
COc1ccc2nc3oc(C(=O)NCc4ccccc4OC)cc3cc2c1,40.6%[activator],-9.5%
Cc1noc(CSc2nnc(Nc3ccc(C(C)C)cc3)s2)n1,51.5%[activator],-4.1%
COC(=O)c1ccoc1COC(=O)Cc1coc2cc(C)c(C)cc12,-16.7%,-8.7%
COc1ccc(NC(=O)Nc2cccc(OCc3cc(=O)n4cccc(C)c4n3)c2)c(OC)c1,0.9%,1.5%
Cc1cccc(OCCSc2nc3ccc(NC(=O)COc4ccccc4)cc3s2)c1,-9.1%,-11.1%
Cc1ccc(-n2ncc3c(=O)n(Cc4cccc(Cl)c4)cnc32)cc1C,-13.4%,8.5%
Cc1cc(NC(=O)C(=O)c2c[nH]c3ccc(F)cc23)no1,63.8%[activator],-9.3%
CC1CCCN(c2ncnc3c2cnn3-c2ccc(F)cc2)C1 (configuration not stated),u,2.1%
Fc1ccc(CCNC(=S)Nc2ccc(Oc3ccccc3)cc2)cc1,24.3%,138.8%[activator]
O=C(CSc1cccc2cccc(Cl)c12)Nc1ccc2ccccc2c1,17.5%,34.9%[activator]
O=C(CC1C(=O)N(Cc2ccccn2)c2nc3ccccc3n21)Nc1ccccc1 (configuration not stated),17.8%,15.0%
CCOC(=O)C(NC=C(C#N)C#N)C(=O)OCC,-0.8%,1.1%
CCOc1cccc2sc(N3CCN(C(=O)C4CC4)CC3)nc12,3.1%,1.8%
CC1=C(C(=O)Nc2ccc(Cl)cc2C(=O)NCCc2cccs2)SCCO1,-10.0%,4.4%
Cc1ccc(NC(=O)C2Cc3ccccc3N2C(=O)c2ccccc2)cc1Cl (configuration not stated),6.7%,0.4%
FC(F)(F)C1(C(F)(F)F)C2C=CC(C2)N1c1nccs1 (configuration not stated),15.2%,11.5%
COc1ccccc1CNC(=O)c1scnc1C,4.9%,-12.0%
Cc1ccc(-n2c(-c3ccco3)nc3c(cnn3-c3ccccc3Cl)c2=O)cc1,-5.4%,-7.9%

# Carrying on:
SMILES,StopGo FLuc,2A Renilla
CCC(C)NC(=O)NC1CCN(c2nc3ccccc3n(C)c2=O)CC1 (configuration not stated),8.0%,-9.2%
O=C(O)Cc1sc(Nc2ccccc2)nc1-c1ccccc1,250.8%[activator],-6.8%
CC1CCN(S(=O)(=O)c2ccc3c(c2)N(CC(=O)O)C(=O)CO3)CC1,-12.2%,-18.0%
CCOC(=O)c1nc2ccccc2nc1NCc1ccco1,17.0%,-1.7%
C=CC[N+]12CCCCC1[C@H](CO)CCC2 (some centres not stated),0.6%,-7.6%
O=C(CCCc1nc2ccccc2o1)NCc1ccccc1F,27.3%,-7.6%
CCN(c1ccccc1)S(=O)(=O)c1ccc(F)c(C(=O)Nc2ccc(C)cc2)c1,18.2%,56.1%[activator]
Cc1nc2ccc(C(=O)OC(C)C(=O)NC3CCCCCC3)cc2nc1C (configuration not stated),114.9%[activator],-12.0%
Cc1c(C(=O)N(C)C)sc2c1c(=O)n(-c1ccc(Cl)cc1)c(=O)n2CC(=O)C(C)(C)C,-13.3%,-3.9%
COC(=O)c1cccnc1-n1c(=O)c2cccnc2n(CC(=O)Nc2c(C)cc(C)cc2C)c1=O,-1.4%,-7.8%

# 4 structures from above, sorted by molar mass, high to low:
SMILES,StopGo FLuc,2A Renilla
Fc1ccc(CCNC(=S)Nc2ccc(Oc3ccccc3)cc2)cc1,24.3%,138.8%[activator]
CC(C)CC1Nc2ccc(C(=O)NCCCOC(C)C)cc2NC1=O (configuration not stated),-2.4%,1.0%
COC(=O)c1ccoc1COC(=O)Cc1coc2cc(C)c(C)cc12,-16.7%,-8.7%
O=C(CN1CCCCC1)c1ccc(-c2ccccc2)cc1,0.0%,0.1%[1.06 µM]

# Next part.
SMILES,StopGo FLuc,2A Renilla
Cc1ccc(-c2nc3ncccc3o2)cc1NC(=O)CC12CC3CC(CC(C3)C1)C2,5.7%,13.3%
Cc1ccc(-n2nnc(-c3nsc(NC(=O)c4ccccc4)n3)c2C)cc1,71.9%[activator],11.1%
Cc1cc(C)c(S(=O)(=O)N(C)C(=O)c2cc3c(s2)CCCCCC3)c(C)c1,5.8%,25.4%
Cc1cc(Cl)ccc1NC(=O)c1ncoc1-c1ccco1,-5.0%,3.2%
CC(C)NC(=O)CNC(=O)C(=O)Nc1cccc2[nH]ccc12,23.8%,23.3%
CN(C)/N=N/c1nc[nH]c1C(N)=O,6.1%[11.5 µM],14.3%
Cc1ccc(-n2ncc(C(=O)N(C)Cc3ccccc3)c2-n2cccc2)cc1,u,74.5%[activator]
CCOC(=O)c1ccc(NC(=O)CC2C(=O)N(c3ccccc3)C(=O)N2C2CCCCC2)cc1 (configuration not stated),-18.5%,5.8%
CC(NC(=O)Cc1csc2nc(-c3ccccc3)cn12)c1ccc(Cl)cc1 (configuration not stated),-2.3%,5.7%
COc1ccc(Br)cc1CNC(=O)CCSCc1ccc(C)cc1,-3.1%,17.6%
O=C(CCn1nnc2ccccc21)OCC(=O)c1ccc(Cl)c(Cl)c1,-13.8%,-17.2%
COc1ccc2nc(SCC(=O)N3N=C(c4cccs4)CC3c3ccco3)[nH]c2c1 (configuration not stated),14.7%,18.3%
COc1ccc(C(=O)NNC(=O)CC2Sc3ccc(Cl)cc3NC2=O)cc1OC (configuration not stated),-5.5%,9.3%
Cc1ccc(C(=O)O)cc1F,17.8%,10.6%
O=C(c1cc(-c2ccncc2)nc2ccccc12)N1CCN(C(=O)C2CC2)CC1,29.0%,29.9%
CC(C)CNC(=O)CSc1nnc(COc2ccc(Cl)cc2)n1C,8.3%,-3.2%
CNC(=O)NC(=O)CN(C)Cc1ccccc1C(F)(F)F,14.5%,-3.2%
CN(C)CCCNC(=O)c1nc2ccccc2c(=O)[nH]1,-14.6%,-16.7%
CCc1ccc(S(=O)(=O)c2nnn3c2nc(NCc2cccs2)c2sccc23)cc1,-11.8%,18.5%
Cc1cc2oc(=O)cc(C)c2c2occ(-c3ccc(Cl)cc3)c12,-13.4%,-12.3%
CCOC(=O)C1CCN(S(=O)(=O)c2cc(Br)cc3c2N(C(=O)CC)CC3)CC1,-5.5%,-2.0%
